# Screening data from PubChem BioAssay.
# LANA-H2A inh – blocks KSHV LANA binding to histone H2A/H2B. cell-free LANA-H2A/H2B peptide, fluorescence polarization. AID 2629. inhibition, % (concentration not given with the values). 0.6% of 320,000 active; in the data active means inhibition mostly above about 10%, no sharp cut-off; inactive means mostly below about 6.7%;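 further: stock transfer was 7.5 nL into about 10 µL; 0% = median of vehicle wells and 100% = median of positive control wells; one replicate is shown; the record names a cut of 25% in any replicate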
# UCH37 DUB inh – inhibitors of human deubiquitinating enzyme UCH37 | Q9Y5K5 | purified proteasome/UCH37, Ub-AMC cleavage fluorescence | inhibition, % (concentration not given with the values) | 0.33% of 330,000 active;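 active means mean of two replicates above 20%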;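 further: 0% = compound-free wells with enzyme and 100% = wells lacking proteasome; stock transfer was 100 nL into about 20 µL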
#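 system = Proteasome-associated human UCH37 deubiquitinase | amount = 0.15 nM proteasome as dispensed | medium = pH 7.4 Tris-HCl (50 mM) with ovalbumin, ATP-MgCl2, DTT | incubation = 30 min preincubation with enzyme, 25 min cleavage at room temperature | detection = AMC fluorescence 355/460 nm | read-out basis = percent inhibition | controls = no-proteasome and no-compound wells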
# FGF22 binding – FGF22 (human) thermal shift binding. Q9HCT0. recombinant FGF22 thermal shift, SYPRO orange fluorescence; percent of sucrose octasulfate shift, DMSO zero. calls only at 9.99 µM. 1.5% of 340,000 active;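 active means melting point raised past a set limit in the mean and every replicate; three in four hits are not shown here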
# ALR inh – inhibitors of human sulfhydryl oxidase ALR. P55789. purified ALR, DTT oxidation, H2O2 HRP-luminol luminescence. inhibition, % (test concentration not listed). 3.8% of 290,000 active;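 active means mean and each replicate at 75% or more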;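 further: stock transfer was 7.5 nL into about 7.5 µL; 0% = neutral wells and 100% = wells with inactivated enzyme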
# Target sequence (P55789 whole entry, looked up): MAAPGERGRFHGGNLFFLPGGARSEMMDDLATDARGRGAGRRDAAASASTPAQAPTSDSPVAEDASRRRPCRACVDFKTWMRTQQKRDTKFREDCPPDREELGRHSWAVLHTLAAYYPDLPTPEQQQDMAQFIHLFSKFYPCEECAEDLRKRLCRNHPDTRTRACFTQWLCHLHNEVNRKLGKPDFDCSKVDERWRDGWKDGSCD
# E coli growth – inhibitors of Escherichia coli growth; OD600, 23 h; active compounds read low; OD600 absorbance (test concentration not listed); 0.21% of 330,000 active;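 active means OD600 absorbance below the run mean of sample wells minus 3.6 SD, in any replicate, cut at about 0.56 in these data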;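 further: stock transfer was 300 nL into about 60 µL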
# Beta2AR agonist – human beta-2 adrenergic receptor agonism by FAP | response, % (concentration not given with the values) | P07550 | Am2.2-beta2AR cells, FAP receptor internalization, flow cytometry; reference of the scale not given here | 0.43% of 340,000 active;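 active means response above a set limit, near 3 SD of response in nonfluorescent compounds, cut at about 42% in these data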;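 further: stock transfer was 100 nL into about 11 µL; a reference agonist was the positive control; negative values mostly stem from fluorescent compounds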
# Target sequence (P07550 whole entry, looked up): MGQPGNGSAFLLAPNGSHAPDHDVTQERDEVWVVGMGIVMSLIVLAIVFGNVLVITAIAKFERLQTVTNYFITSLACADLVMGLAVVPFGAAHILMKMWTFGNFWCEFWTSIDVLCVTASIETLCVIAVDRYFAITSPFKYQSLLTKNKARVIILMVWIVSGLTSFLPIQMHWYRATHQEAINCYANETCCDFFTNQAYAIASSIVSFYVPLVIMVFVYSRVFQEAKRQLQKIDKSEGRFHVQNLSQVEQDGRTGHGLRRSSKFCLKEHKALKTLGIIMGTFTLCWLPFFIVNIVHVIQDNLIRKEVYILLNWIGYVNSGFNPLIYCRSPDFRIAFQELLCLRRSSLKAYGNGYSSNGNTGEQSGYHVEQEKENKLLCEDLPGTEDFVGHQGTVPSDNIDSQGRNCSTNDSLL
# HNF4A DNA FP – change in binding of human HNF4 alpha to DNA; P41235; HNF4a-FITC DNA binding, fluorescence polarization, 1 h; activity change, % at 10 µM; 0.3% of 360,000 active; in the data active means activity change above about 30%, passing the limit was not always enough;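 further: controls were the assay level and a saturating level of protein; the project sought stronger binding though the title names inhibitors; some compounds called inactive have numbers as strong as hits; positive values seem to mean higher polarization but the record does not say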
# Target sequence (P41235 whole entry, looked up): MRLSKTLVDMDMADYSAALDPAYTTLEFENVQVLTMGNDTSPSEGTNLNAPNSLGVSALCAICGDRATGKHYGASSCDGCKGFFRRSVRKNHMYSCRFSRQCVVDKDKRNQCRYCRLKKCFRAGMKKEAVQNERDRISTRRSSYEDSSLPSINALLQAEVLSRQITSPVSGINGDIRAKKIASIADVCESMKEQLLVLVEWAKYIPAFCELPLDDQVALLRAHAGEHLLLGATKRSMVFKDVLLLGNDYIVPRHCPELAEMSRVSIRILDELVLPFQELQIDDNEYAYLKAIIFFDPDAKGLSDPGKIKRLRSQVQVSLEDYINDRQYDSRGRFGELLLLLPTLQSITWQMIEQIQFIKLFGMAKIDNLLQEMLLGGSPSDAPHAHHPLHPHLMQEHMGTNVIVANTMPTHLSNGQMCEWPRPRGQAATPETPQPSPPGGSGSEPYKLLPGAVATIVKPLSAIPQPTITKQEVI
# Active calls of the source: *; i = inactive; nt = not tested or not shown.
SMILES,LANA-H2A inh,UCH37 DUB inh,FGF22 binding,ALR inh,E coli growth,Beta2AR agonist,HNF4A DNA FP
COc1cc(C(=O)NNC(=O)c2ccc(F)cc2)ccc1OCC(=O)N1CCOCC1,-0.9,1.8,i,11,0.69,-3,-3.7
O=C(O)CCc1ccc(-c2cccs2)n1NC(=O)c1ccc(Cl)cc1Cl,-8.4,2.2,nt,71,0.7,-5,-2.6
CC1(C)CC(=O)C(C(O)c2cccc([N+](=O)[O-])c2)C(C)(C)N1 (stereo unspecified),-0.9,2.6,i,-6,0.68,-3,5.8
COC(=O)c1ccc(CO/N=C2\CCCc3nonc32)cc1,5.1,nt,i,-2,nt,1,1.7
Cc1noc(C)c1C(=O)OCC(=O)NC1CCCCC1C (stereo unspecified),nt,1.6,i,nt,0.61,-8,0.9
COc1cccc(C(=O)NC2CCCc3ccccc32)c1 (stereo unspecified),-2.1,0.9,i,-38,0.67,-6,0.9
Cn1c(=O)n(C)c2cc(S(=O)(=O)Nc3cc(Cl)ccc3O)ccc21,-3.9,7.3,i,98*,0.66,-7,2.6
CCOc1ccccc1C=NNC(=O)CCCCC(=O)NN=Cc1ccccc1OCC,nt,4.3,i,nt,0.7,-5,2.2
CN(Cc1ccccc1)C(=O)COC(=O)/C=C/c1ccc2c(c1)OCO2,-3.2,-47,i,1,0.68,6,0.9
O=C(COc1ccccc1)Nc1ccc(-c2nnc(-c3ccco3)o2)cc1,-3.5,-8.4,nt,-8,0.77,-7,-3.5
C=CCNCCCOc1ccc(C(C)(C)c2ccccc2)cc1,1.2,2.6,i,-9,0.65,13,-1.3
CC(C)(C)NC(=O)COc1ccc2oc3c(c2c1)CCCC3,-2.9,2.0,i,3,0.68,-11,-3.6

# A different layout for two compounds above:
CC(C)(C)NC(=O)COc1ccc2oc3c(c2c1)CCCC3
  LANA-H2A inh: -2.9
  UCH37 DUB inh: 2.0
  FGF22 binding: i
  ALR inh: 3
  E coli growth: 0.68
  Beta2AR agonist: -11
  HNF4A DNA FP: -3.6
O=C(O)CCc1ccc(-c2cccs2)n1NC(=O)c1ccc(Cl)cc1Cl
  LANA-H2A inh: -8.4
  UCH37 DUB inh: 2.2
  FGF22 binding: nt
  ALR inh: 71
  E coli growth: 0.7
  Beta2AR agonist: -5
  HNF4A DNA FP: -2.6

# (continued)
SMILES,LANA-H2A inh,UCH37 DUB inh,FGF22 binding,ALR inh,E coli growth,Beta2AR agonist,HNF4A DNA FP
COc1ccc(N2CCN(C(c3ccccc3OC)c3nnnn3Cc3ccco3)CC2)cc1 (stereo unspecified),-5.8,0.7,nt,33,0.67,-5,0.4
COc1ccccc1N1CC(C(=O)OCc2nc(N)nc(Nc3ccccc3)n2)CC1=O (stereo unspecified),-4.3,nt,i,-1,nt,5,1.5
O=C1CC(NS(=O)(=O)c2cccnc2)CN1c1ccccc1 (stereo unspecified),-1.9,4.7,i,-12,0.7,9,-4.0
COCCOC(=O)c1[nH]c2c(c1C)C(=O)CC(c1cc(OC)c(OC)c(OC)c1)C2 (stereo unspecified),-0.3,0.0,i,-8,0.7,9,3.3
Cn1c(Cc2cccc3ccccc23)nnc1SCc1ccc([N+](=O)[O-])cc1,-2.6,2.0,nt,-9,0.72,-4,-0.9
O=C(CN(Cc1ccc(Br)cc1)S(=O)(=O)c1ccccc1)NCc1ccccn1,-1.0,-0.6,i,-10,0.69,-4,0.3
C#CCOCCOCCOCCNc1nc(N2CCN(C(=O)CCCCCCCCCCNC(=O)[C@H](CO)n3cc(CCCSC)nn3)CC2)nc(N2CCN(C(=O)CCCCCCCCCCNC(=O)[C@H](CCCCN)n3cc(CCO)nn3)CC2)n1,-21,2.9,i,-11,nt,35,14
O=C(N/N=C/c1ccc(Cl)cc1)C1CC12CCC2 (stereo unspecified),0.5,nt,nt,nt,nt,-12,0.4
CCOc1ccc(-c2noc(=O)[nH]2)cc1,1.4,-0.1,nt,-15,0.68,-5,0.2
O=C(/C=C/c1ccc(Cl)cc1)NCCc1ccccc1,-13,5.1,nt,nt,0.71,0,-2.1
C[C@H](CO)N1C[C@H](C)[C@@H](CN(C)C(=O)Nc2ccccc2)Oc2ccc(NC(=O)Cc3ccccc3)cc2C1=O,-0.9,4.6,i,1,nt,-12,-1.1
Brc1cc(/C=N/n2cnnc2)oc1Br,-2.4,nt,i,-4,nt,1,-0.7
CCN(CC)S(=O)(=O)c1ccc(OC)c(NC(=O)C(C)Oc2ccc3c(C)cc(=O)oc3c2)c1 (stereo unspecified),1.0,-6.5,i,-3,0.69,-10,2.2
C(CCCN1CCCCC1)CCN1CCCCC1,4.8,1.8,i,-8,0.62,-3,-2.8
Nc1nnc(Sc2ncccc2[N+](=O)[O-])s1,3.2,4.7,i,-128,0.67,11,-6.0
C[C@]1(CC/C(=C/CO)CO)[C@H](CO)CC[C@@]23COC(=O)C2=CCC[C@@H]31,-1.5,0.5,i,nt,0.69,0,2.6
CNC(=O)C(=O)NCC1OCCN1S(=O)(=O)c1ccc([N+](=O)[O-])cc1 (stereo unspecified),-0.3,4.2,nt,-14,0.67,-2,0.9
Cc1cc(C)c(OCCCCN2CCNCC2)c(C)c1,2.4,1.4,i,-24,0.66,5,-0.2
CN1C(=O)[C@H]2[C@@H](c3ccc(F)cc3)N3C(=O)c4ccccc4NC(=O)[C@@]3(C)[C@H]2C1=O,4.6,0.9,nt,nt,nt,-1,-6.0
O=C(NCc1ccc2c(c1)OCO2)C1(S(=O)(=O)c2ccccc2)CC1,-6.0,5.3,nt,1,0.75,-1,1.9
Fc1ccccc1OCCn1c(=S)[nH]c2ccccc21,-8.6,1.7,i,70,0.61,-7,-0.9
COc1ccc(S(=O)(=O)N2CCN(Cc3cccc(Cl)c3)CC2)cc1,4.4,0.5,nt,-2,0.67,1,-1.0
Cc1ccc(Nc2cc(-n3nc(C)cc3C)ncn2)c(C)c1,0.7,3.5,nt,-2,0.71,7,0.2
CCc1nc(SCC#N)c(C#N)cc1C,9.7,-1.3,nt,-2,0.64,nt,nt
CCOC(=O)CCC(=O)N(CCN(C(=O)CCC(=O)OCC)c1ccccc1)c1ccccc1,0.8,7.3,nt,-2,0.71,-4,1.6
COc1ccc(N=Nc2c(-c3ccc(OC)cc3)[nH]oc2=O)cc1,1.2,4.8,i,-23,0.66,-2,11
COc1cccc(C(=O)NCC2CCN(c3ccc(S(=O)(=O)N4CCOCC4)cc3)CC2)c1,-4.8,5.8,nt,-6,0.62,6,5.2
CN1CCN(c2ccc([N+](=O)[O-])cc2NC(=O)c2ccccc2Cl)CC1,0.0,6.6,i,-2,0.62,-4,-3.2
O=C(O)c1ccc2c(c1)NC(=O)C(N1CCCC1)S2 (stereo unspecified),-3.8,-0.3,nt,18,0.72,6,-17
CCN1CCN(c2cc3nc(C)n(Cc4ccccc4)c(=O)c3cc2NC(=O)c2ccccc2F)CC1,3.6,0.5,i,-10,0.69,7,12
CCCCN(CC)CCNC(=O)CCNC(=O)Cn1ccc2ccccc2c1=O,2.8,-3.4,i,-13,0.67,0,1.9
CCC(CO)Oc1cc(NC(=O)c2ccc([N+](=O)[O-])cc2)c2ncn(C(C)C)c2c1 (stereo unspecified),3.1,5.1,i,-4,0.69,-3,0.0
COc1cccc(NC(=O)CN(C)S(=O)(=O)/C=C/c2ccccc2)c1,-2.6,-2.0,i,0,0.68,2,2.4
CN1CCN(CC(=O)Nc2ccc(Oc3ccccc3)cc2)CC1,3.2,2.1,nt,-4,0.69,-3,0.4
COc1ccc(C2NN=C(c3c[nH]c4ccccc34)C2O)cc1 (stereo unspecified),-1.6,nt,i,nt,nt,11,57*
Cc1ccc(C)c(C(C)NC(=S)NCc2ccc(F)cc2)c1 (stereo unspecified),8.7,3.6,i,-1,0.7,13,-0.5
CC(C)CCn1nnnc1C(c1ccccc1F)N1CCC(C(N)=O)CC1 (stereo unspecified),3.8,2.5,nt,-1,0.74,-7,-0.4
COc1ccccc1C1NC(=O)c2ccccc2O1 (stereo unspecified),0.7,-5.9,nt,nt,0.6,1,1.4
CCOc1ncccc1C(=O)NC(C)CCc1ccccc1 (stereo unspecified),-0.5,5.2,i,-12,0.71,-2,1.9
CCOC(=O)c1cc2ccc(OC)c(OC)c2c(=O)s1,-2.6,-5.5,nt,-2,0.73,14,-2.9
CCOC(=O)c1cccc(NC(=O)C2CCCN2S(=O)(=O)c2cccc3cccnc23)c1 (stereo unspecified),-0.1,6.2,i,-71,0.75,1,3.1
CC(=O)c1cccc(NC(=O)CSc2nnc(C(C)N(C)C)n2-c2ccc(F)cc2)c1 (stereo unspecified),-2.9,-1.4,i,0,0.68,2,1.5
COc1ccc(S(=O)(=O)N2CCCCC2)cc1C(=O)N1CCCC1,1.5,nt,i,-2,nt,1,-1.6
Cc1cccc(C(CC(=O)O)n2cccc2)c1 (stereo unspecified),3.3,-1.6,nt,1,0.73,-7,-4.4
CCCN(CC1CC1)C(=S)Nc1ccccc1F,1.1,4.5,i,-1,0.69,-2,1.1
CCN1C=C(C(=O)OC)C(c2cccc(OC)c2OC)C(C(=O)OC)=C1,2.7,-0.1,i,-37,0.7,-2,-0.7
CCN(CC)c1ccc(NC(=O)Nc2ccccc2C(F)(F)F)cc1,2.3,0.7,nt,-1,0.73,-3,0.0
COc1ccccc1C(=O)N1CCN(S(=O)(=O)Cc2ccccc2)CC1,0.0,1.7,nt,nt,0.73,0,0.3
CCC1CCCCN1S(=O)(=O)c1ccc(-n2cnnn2)c(C)c1 (stereo unspecified),-1.8,-0.5,i,-6,0.61,7,1.5
CCCCCn1c(=O)[nH]c2cc(C(=O)NCCN3C(C)CCCC3C)ccc2c1=O (stereo unspecified),-12,-23,nt,0,0.65,9,6.1
COc1ccc(Cc2nnc(NC(C)=O)s2)cc1,1.5,2.9,nt,nt,0.73,-4,1.6
CC1CC(C)CN(C(=O)c2cn(C)c3ccc(S(=O)(=O)N(C)C)cc3c2=O)C1 (stereo unspecified),2.6,6.3,i,-9,0.73,2,-6.1
COc1ccc(NC(=S)NC2CC3CCCC(C2)N3C2CC2)cc1 (stereo unspecified),-0.1,1.2,i,0,0.69,-1,2.9
COc1ccc([C@H]2C(C(=O)O)=C[C@@H](C(C)(C)C)N2S(=O)(=O)c2ccc(C)cc2)cc1OC,nt,1.0,i,nt,0.68,7,-1.4
O=C(CSc1nnc(SCc2ccc(Cl)cc2)s1)N/N=C/c1ccccc1Cl,-3.2,nt,nt,-5,nt,-3,-1.6
CC(=O)Nc1ccc(S(=O)(=O)NC2CCCCCC2)cc1,8.5,1.4,i,3,0.68,3,-3.3
O=C(CN1C(=O)CCOc2ccccc21)Nc1ccc(Cl)c(S(=O)(=O)N2CCOCC2)c1,-3.2,1.9,i,0,0.68,-5,-0.7
COc1ccc2[nH]cc(CCN3C(=O)CCC3=O)c2c1,0.1,0.0,nt,6,0.71,0,-3.6
CC(=O)Nc1cccc(NS(=O)(=O)c2ccccc2[N+](=O)[O-])c1,-0.1,3.7,i,-11,0.69,1,2.2
Clc1ncc2[nH]cnc2n1,-1.2,5.9,i,7,0.71,3,-0.7

# Following part:
SMILES,LANA-H2A inh,UCH37 DUB inh,FGF22 binding,ALR inh,E coli growth,Beta2AR agonist,HNF4A DNA FP
CCOc1cccc(C(=O)NC(c2ccccc2)C(C)C)c1 (stereo unspecified),4.8,3.1,i,nt,0.7,5,-0.1
Cc1ccc(CN(C)C(=O)c2ccc(NS(=O)(=O)c3ccc4[nH]c(=O)[nH]c4c3)cc2)cc1,3.1,7.5,i,nt,0.62,-3,0.2
O=C(NCCc1ccccc1Cl)C1CCC(=O)N(CC2CCCCC2)C1 (stereo unspecified),3.9,-2.0,i,-2,0.67,2,-2.8
Cc1cc2c3c(c1C)C1(C(=O)N3C(C)(C)CC2C)C(C#N)=C(N)OC2=C1C(=O)CC(C)(C)C2 (stereo unspecified),1.7,-2.1,nt,-7,0.66,9,-3.1

# These rows are one share of the data; the hit share may differ from the screen's.
